Assay outcomes from PubChem.
AmpC nodet inh – blocks E. coli AmpC beta-lactamase in absence of detergent; AmpC nitrocefin hydrolysis, absorbance 480 nm, no detergent; potencies from a single point are estimates; 1.8% of 71,000 active; Potency, µM (titrated, usually from 28.7 µM), without a hit: at the highest dose activity change, negative = inhibition; P00811; active = falling curve, for most hits resting on a single point; inconclusive = weak or doubtful change; inactive = flat or rising curve; further: % of control where 0% means no effect; about half of the hits show no inhibition at the top dose; a quarter of the inactives give rising signals
Target sequence (P00811 whole entry, looked up): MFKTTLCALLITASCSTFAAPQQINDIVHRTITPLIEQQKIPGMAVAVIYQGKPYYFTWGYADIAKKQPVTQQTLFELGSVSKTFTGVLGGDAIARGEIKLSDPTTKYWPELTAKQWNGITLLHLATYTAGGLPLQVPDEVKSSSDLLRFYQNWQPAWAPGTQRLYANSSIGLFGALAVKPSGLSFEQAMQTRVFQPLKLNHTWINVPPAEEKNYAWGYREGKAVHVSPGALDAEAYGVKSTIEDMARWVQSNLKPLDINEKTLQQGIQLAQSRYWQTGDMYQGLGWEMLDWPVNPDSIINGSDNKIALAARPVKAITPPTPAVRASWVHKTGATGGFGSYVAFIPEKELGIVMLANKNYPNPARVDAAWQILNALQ
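AmpC, 20 mM phosphate pH 7.0; 15 min cpd preinc, RT; start with nitrocefin (800 uM stock); A480 kinetic read, 20 s intervals, 4 min. No-enzyme wells = negative control.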
The depositor's hits bear a star; ! = a repeat was not active; [ ] = dose if it differs, or a comment. Potency means the concentration at half of the fitted maximal effect.

SMILES	AmpC nodet inh
COc1cccc(-n2c(SCC(N)=O)nnc2-c2ccncc2)c1	-14%
Clc1ccc(Cl)c(-c2nn3c(Cn4cnc5ccccc54)nnc3s2)c1	20%
Nc1nonc1-n1nncc1-c1ccccc1	1%
CCc1cc2c(NCCN3CCCCC3)ncnc2s1	0%
Cc1ccc(-c2nnc3c4ccccc4c(C)nn23)cc1NC(=O)CN1CCOCC1	17%
CCOc1ccc(N2C(=O)CSC2c2ccncc2)cc1 (centres undefined)	-1%
COc1ccc(-c2noc(CCC(=O)N3CCN(Cc4ccccc4)CC3)n2)cc1	140%
O=C(CCN1CCc2ccccc2C1)Nc1ccc(F)cc1	-1%
FC(F)(F)c1cc(-c2ccco2)nc(-n2nc(C(F)(F)F)cc2C2CC2)n1	18%
Cc1ccc(Cn2ccc(NC(=O)CCSc3nc(-c4ccco4)cc(C(F)(F)F)n3)n2)cc1	-9%
COc1cccc2sc(N)nc12	-14%
N#Cc1cn(-c2ccccc2)nc1-c1ccccc1	-13%
CC(C)(C)c1ccc(NC(=O)COC(=O)C2=COCCO2)cc1	18%
O=C(Nc1ccccc1)N1CCC(c2nc(-c3ccc(S(=O)(=O)N4CCOCC4)cc3)no2)CC1	67%
Cc1ccc(CNC2=NCCCCC2)n1C	8%
Cc1ccnc(SCCn2c(Br)nc3c2c(=O)n(C)c(=O)n3C)n1	6%
Cc1ccc(C)c(C(=N)c2ccccc2Cc2ccccc2)c1	-2%[5.75 µM]
Cc1nc2nc3c(cn2n1)C(=O)CC(c1ccccc1)C3 (centres undefined)	6%
COc1ccc(NC(=O)C23CCC(C2)C(C)(C)C3=O)cc1 (centres undefined)	14%
O=c1c(-c2ccccc2)coc2c(CN3CCCC3)c(O)ccc12	-8%
CC1CCCCN1CCNC(=O)C1CC(=O)N(c2ccc(F)c(Cl)c2)C1 (centres undefined)	4%
COc1cc2c(cc1NC(=O)CSCC(=O)O)oc1ccccc12	-5%
Cc1cc(-n2ccc(=O)[nH]c2=O)nc(-c2ccccc2)n1	7%
CC(C)(C)n1nnnc1C(c1ccccc1)N1CCc2ccccc2C1 (centres undefined)	42%
COc1ccc(NC(=O)CSc2nncs2)cc1OC	-2%
CN1CCN(c2ncc3ncc(=O)n(CCc4ccccc4)c3n2)CC1	10%
COc1ccc(OCC(O)Cn2c(=N)n(CCN3CCCCC3)c3ccccc32)cc1 (centres undefined)	9%
Cc1ccc(S(=O)(=O)N2CCCC2C(=O)O)cc1 (centres undefined)	-7%
O=C(CSc1nnc(-c2ccco2)n1CC1CCCO1)c1ccccc1 (centres undefined)	20%
O=C1c2ccccc2C(=O)N1c1ccccc1S(=O)C(F)(F)F (centres undefined)	-10%
Cc1ccccc1CN1CCN(C(=O)c2cccc(F)c2)CC1	34%
O=C(Nc1cccnc1)C1(F)C(F)(F)C(F)(F)C(F)(F)C(F)(F)C1(F)F	49%
CN(C)C(=O)CSc1nc2ccccc2c(=O)[nH]1	-3%
C=CCNC(=O)C(C)Sc1ccc(Cl)cc1 (centres undefined)	-4%
CC(=O)Cc1nsc(NC(=O)c2ccc(COc3ccc(C)cc3)o2)n1	15%
CCOc1ccc(OCC)c(NC(=O)CSc2nc3ccccc3c(=O)n2C)c1	59%
CCN(CC)CCNC(=O)c1ccc(CS(=O)(=O)c2ccc(Br)cc2)o1	3.2µM*[single pt active]
CN(C)c1ccc(CNn2cnnc2)cc1	0%
Cc1ccc2c(c1)[nH]c1c(=O)n(CCCN3CCOCC3)cnc12	-5%
COc1ccc(CCNC(=O)C2CCCN(S(=O)(=O)c3cccc4nonc34)C2)cc1OC (centres undefined)	44%
CCCC(c1nnnn1Cc1ccco1)N1CCN(C2CCCC2)CC1 (centres undefined)	-6%
Cc1csc(NC(=O)CSc2nnc(-c3ccoc3C)n2Cc2ccco2)n1	32%
Cc1cc(=O)[nH]c(-c2ccccc2O)n1	-4%
Cc1ccccc1OCC(=O)NCCN(C)C	-3%
COCCn1c(=O)c(-c2cn(C)c3ccccc23)nc2cnc(N3CCOCC3)nc21	0%
COCc1[nH]nc2c1C1(CCSCC1)C(C#N)=C(N)O2	-5%
Cc1cccc(-n2ncc3c(NCc4ccc5c(c4)OCO5)ncnc32)c1	-17%
CCN(CC)S(=O)(=O)c1ccc(-c2nnc(SCC(=O)c3ccc(OC)cc3)o2)cc1	18%

Of the compounds above, 3 have a CF3 group.
SMILES	AmpC nodet inh
FC(F)(F)c1cc(-c2ccco2)nc(-n2nc(C(F)(F)F)cc2C2CC2)n1	18%
Cc1ccc(Cn2ccc(NC(=O)CCSc3nc(-c4ccco4)cc(C(F)(F)F)n3)n2)cc1	-9%
O=C1c2ccccc2C(=O)N1c1ccccc1S(=O)C(F)(F)F (centres undefined)	-10%

Next section:
SMILES	AmpC nodet inh
Cc1ccc(CC2CC(=O)N(c3ccncc3)C2=O)cc1 (centres undefined)	18%
CCOCC(=O)Nc1cccc(NC(C)=O)c1	3%
COc1cccc(C2=CC(c3ccc(N(C)C)cc3)n3ncnc3N2)c1 (centres undefined)	34%
COc1ccc2nc(NCN3C(=O)c4ccccc4C3=O)sc2c1	7%[5.75 µM]
Cc1c(N=Cc2ccncc2)c(=O)n(-c2ccccc2)n1C	-3%
O=C(O)c1cccc([N+](=O)[O-])c1	-9%
COCCN(C(=O)CCC(=O)Nc1ccccn1)C(C(=O)NC1CCCC1)c1ccc(OC)cc1 (centres undefined)	38%
O=C(NCCCCO)C(F)(F)C(F)(F)C(F)(F)C(=O)NCCCCO	-4%
CN1CC[C@@]2(CCN3CCc4c(oc5ccccc45)[C@@H]3C2)N(C)C1=O	50%
CCN(CC)C(=O)c1cc2c(=O)n3cccc(C)c3nc2n1C	18%
COc1cc(C)c(S(=O)(=O)N2CCN(C)CC2)cc1C	3%
CN(C)c1ccc(C(=S)N2CCN(c3ccccc3)CC2)cc1	3%

Reformatted as labelled records: 4 of the compounds above
SMILES: COCCN(C(=O)CCC(=O)Nc1ccccn1)C(C(=O)NC1CCCC1)c1ccc(OC)cc1 (centres undefined)
  AmpC nodet inh: 38%

SMILES: O=C(NCCCCO)C(F)(F)C(F)(F)C(F)(F)C(=O)NCCCCO
  AmpC nodet inh: -4%

SMILES: CN1CC[C@@]2(CCN3CCc4c(oc5ccccc45)[C@@H]3C2)N(C)C1=O
  AmpC nodet inh: 50%

SMILES: CCN(CC)C(=O)c1cc2c(=O)n3cccc(C)c3nc2n1C
  AmpC nodet inh: 18%

Later entries.
SMILES	AmpC nodet inh
O=C(CSc1ncn(-c2ccccc2)n1)c1cccs1	-4%
CC[n+]1ccc(C)c2cc(S(=O)C(F)(F)F)ccc21 (centres undefined)	-6%
CC1(C)CC(=O)C(C(=O)CCCCC(=O)C2C(=O)CC(C)(C)CC2=O)C(=O)C1	-2%
Nc1nc(N2CCOCC2)nc(N(c2ccccc2)c2ccccc2)n1	0%
COc1ccc(S(=O)(=O)N2CCCC(C(=O)Nc3cccnc3)C2)cc1Cl (centres undefined)	41%
CCOC(=O)C1=C(C)NC(=O)NC1c1ccc(OC)c(Cl)c1 (centres undefined)	-2%
COc1cc(OC)c(OC)cc1C=O	-8%
CN=C(Nc1ccc2c(c1)OCO2)SC1CC(=O)N(c2ccccc2)C1=O (centres undefined)	42%
CC1CC(C)CN(CCCNC(=O)c2cn(C)c3ccc(S(=O)(=O)N4CCCC4)cc3c2=O)C1 (centres undefined)	26%
COc1cccc(-n2c(=O)[nH]cc(C(=O)Nc3ccc(NC(C)=O)cc3)c2=O)c1	-1%
Nc1ccnn1C1CCNCC1	-1%
CC(CNS(=O)(=O)c1cc(Cl)ccc1Cl)CN(C)C (centres undefined)	13%
COCCn1nnnc1SCC(=O)c1ccc(F)cc1	2%
Cc1ccccc1Cn1nc(C)c(NC(=O)c2nc3n(n2)C(C(F)F)CC(C)N3)c1C (centres undefined)	64%
Cc1occc1-c1nnc(SCC(=O)N2CCc3ccccc32)o1	51%
CSCCC(NC(N)=O)C(=O)NCc1ccccc1Cl (centres undefined)	-5%
CC(=O)N1CSCC1C(=O)N1CCN(c2ccc(N3CCOCC3)nn2)CC1 (centres undefined)	2µM*[single pt active]
C[N+](C)(C)CCOC(=O)CBr	-5%
O=C(c1cc2n(n1)C(C(F)(F)F)CC(c1ccco1)N2)N1CCc2ccccc2C1 (centres undefined)	107%
CCN1CCCC1CNC(=O)Cn1cc2c(n1)CCC(C)C2 (centres undefined)	0%
O=C(NCCSc1c[nH]c2ccccc12)c1ccco1	-2%
CCOC(=O)Nc1sc(C(=O)N(CC)CC)c(C)c1C(=O)OCC	60%
Cc1ccc2c(c1)nnn2C1CCN(S(=O)(=O)c2cccc(S(=O)(=O)N(C)C)c2)CC1	38%
Cn1c(=O)n(CCOc2ccccc2Cl)c2ccccc21	98%

Reformatted in CSV form: entries from further up.
Molecule,AmpC nodet inh
CCOC(=O)Nc1sc(C(=O)N(CC)CC)c(C)c1C(=O)OCC,60%
Cc1ccc2c(c1)nnn2C1CCN(S(=O)(=O)c2cccc(S(=O)(=O)N(C)C)c2)CC1,38%

Next compounds.
SMILES	AmpC nodet inh
CN1C(=O)N(C)C2C1NC(=O)N2C (centres undefined)	-6%
C=C(C)C1CC=C(C)C(O)C1 (centres undefined)	-7%
CC(C)C(=O)Nc1ccc(N2CCN(S(C)(=O)=O)CC2)cc1	5%
Cc1cc2ccccc2c(=O)n1CC(=O)NCC(=O)N1CCN(c2ccccc2)CC1	23%
COCCNC(=O)C(C)Oc1ccc(Cl)cc1Cl (centres undefined)	12%
COc1ccccc1NC(=O)CSc1nc2ccccc2n1C(C)=O	-6%
O=C(COc1ncnc2ccc(Br)cc12)N1CCOCC1	-1%
FC(F)(F)c1ccccc1-c1cc(NCc2ccccc2)ncn1	26%
CCCCC#Cc1nc(N)c2ncn([C@@H]3O[C@@H](C(=O)NCC)[C@H](O)[C@@H]3O)c2n1	15%
CCCc1c(-c2ccc(O)cc2)nn(-c2ccc(O)cc2)c1-c1ccc(O)cc1	7.9µM*!
CCCCN1CCC(COC(=O)c2cc(Cl)c(N)c3c2OCCO3)CC1	15%
CCOCC(=O)Nc1ccc(F)c(F)c1	-3%
Cc1ccc(C)c(N2C(=O)CN=C2Nc2ccccc2Cl)c1	-11%
CCOc1ccc(N(CC(=O)O)S(=O)(=O)c2ccc(F)cc2)cc1	-5%
COc1ccc(CSc2nnnn2C)cc1F	-5%
O=C(O)Cc1cc(I)c(Oc2ccc(O)c(I)c2)c(I)c1	-8%[12.8 µM]
CN(C(=O)c1cccc(C#N)c1)c1nnc(-c2cnccn2)s1	17%
Cc1n[nH]c(C)c1S(=O)(=O)N1CCN(C2CCCCC2)CC1	-7%
O=C1CCCC2=C1C(O)(C(F)(F)F)C(=O)N2Cc1ccccc1 (centres undefined)	2%
COCCn1c(=O)c(-c2ccccc2)nc2cnc(N3CCN(C)CC3)nc21	51%
CCCCN(CCCNC(=O)C1CCN(S(=O)(=O)N2CCOCC2)CC1)Cc1ccccc1	1%
Cc1c(N=C=O)cccc1N=C=O	44%
CC(CN1CCCCC1)OC(=O)Cc1ccc(Cl)cc1 (centres undefined)	-8%
c1ccc(OCCCc2nc(-c3cccnc3)no2)cc1	19%
Fc1ccc(Nc2ccnc(-c3ccoc3)n2)cc1	4%
CCC(C)c1ccc(NC(=O)C2CCCN(c3ncccn3)C2)cc1 (centres undefined)	21%
O=C1CC(c2ccc3c(c2)OCO3)C2=C(CCCC2=O)N1 (centres undefined)	11%
Cc1cc(NC(=O)c2cccc(F)c2)ncc1NC(=O)c1ccco1	-8%
NCCC[C@@H](CC(=O)N[C@@H]1CCCC[C@H]1C(=O)N[C@H](CC(=O)N[C@@H](CCC(=O)O)CC(=O)O)Cc1ccccc1)NC(=O)C[C@H](CO)NC(=O)[C@@H]1CNCC[C@H]1N	110%
CCn1c(SCC(=O)Nc2ccc(NC(C)=O)cc2)nnc1C1CC1	1%
COc1cc(C(=O)Nc2cccc3ncccc23)cc(OC)c1OC	1%
O=C(Nc1ccccc1O)c1ccccc1O	-25%
Cc1ccc(NCc2nnc(SCC(=O)Nc3ccccc3)n2CC2CCCO2)c(C)c1 (centres undefined)	101%
CCCS(=O)(=O)N1CCC(C(=O)NCCc2ccc(C)cc2)CC1	-3%
Nc1nc(-c2cccnc2)nc(N2CCCCC2)n1	4%
CCn1cc(C(=O)NCCCN2CCC(C)CC2)c2cc(OC)c(OC)cc2c1=O	14%
O=C(CN(CC1CCCO1)C(=O)Cn1nnc(-c2ccc(F)cc2)n1)NC1CCCCC1 (centres undefined)	120%
O=C(Cn1cc2c(n1)CCCC2)NC1CCN(Cc2ccccc2)CC1	3%
COc1ccc(Br)cc1S(=O)(=O)N1CCN=C1C	29%
CCn1c(=O)c2cc(S(=O)(=O)NC3CCCCC3)ccc2n(CC)c1=O	20%
CCOC(=O)c1cc2oc(C(c3nnnn3C3CCCCC3)N3CCOCC3)cc2[nH]1 (centres undefined)	91%
Cc1sc2nc(-c3cccs3)nc(N3CCCN(C)CC3)c2c1C	74%
C#CCOc1ccc2c(C)cc(=O)oc2c1	-5%
O=C(NCc1ccco1)C1(S(=O)(=O)c2ccc(Cl)cc2)CC1	2%
O=C(O)c1cc2ccccc2oc1=O	-4%
COc1cc(C(=O)Nc2oc(-c3ccccc3)c(-c3ccccc3)c2C#N)cc(OC)c1OC	59%
CCOC(=O)CCSc1nc(C)c2ccccc2n1	25%
Cc1c[nH]c2cccc(OCC(O)CNC(C)(C)C)c12 (centres undefined)	-14%
CCC(C)(C)n1nnnc1C(c1cc2ccc(OC)cc2[nH]c1=O)N1CCc2ccccc2C1 (centres undefined)	40%
CCn1c(=N)n(CC(=O)OC)c2ccccc21	40%
O=S(=O)(c1ccc2c(c1)nc1n2CCC1)N1CCOCC1	15%
COc1ccc(N(CC(=O)NC2CCCCC2)C(=O)CCCC(=O)Nc2ccccn2)c(OC)c1	89%

This is a subset (hit frequency here may not be typical).
